High-throughput results as filed in PubChem.
PABP FP inh: PABP poly(A) RNA binding inhibitors, primary screen, biochemical, fluorescence polarization, uHTS; Polyadenylate-binding protein 1 (Homo sapiens), P11940; inhibition, % at 35 µM; 290,000 tested, 1% active;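 active = 50% or more with normal probe brightness, or confirmed in later tests; inconclusive = above 50% with abnormal brightness, or retests that disagree; inactive = below 50% or failed in later tests; about a fifth of its hits are not listed in these tables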;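 note: calls also rest on retests at 20 µM and on dose response follow-up; controls were probe without protein and protein plus probe with vehicle; some compounds called inactive have numbers as strong as hits; many hits fall short of the cut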
Target sequence (P11940 whole entry, looked up): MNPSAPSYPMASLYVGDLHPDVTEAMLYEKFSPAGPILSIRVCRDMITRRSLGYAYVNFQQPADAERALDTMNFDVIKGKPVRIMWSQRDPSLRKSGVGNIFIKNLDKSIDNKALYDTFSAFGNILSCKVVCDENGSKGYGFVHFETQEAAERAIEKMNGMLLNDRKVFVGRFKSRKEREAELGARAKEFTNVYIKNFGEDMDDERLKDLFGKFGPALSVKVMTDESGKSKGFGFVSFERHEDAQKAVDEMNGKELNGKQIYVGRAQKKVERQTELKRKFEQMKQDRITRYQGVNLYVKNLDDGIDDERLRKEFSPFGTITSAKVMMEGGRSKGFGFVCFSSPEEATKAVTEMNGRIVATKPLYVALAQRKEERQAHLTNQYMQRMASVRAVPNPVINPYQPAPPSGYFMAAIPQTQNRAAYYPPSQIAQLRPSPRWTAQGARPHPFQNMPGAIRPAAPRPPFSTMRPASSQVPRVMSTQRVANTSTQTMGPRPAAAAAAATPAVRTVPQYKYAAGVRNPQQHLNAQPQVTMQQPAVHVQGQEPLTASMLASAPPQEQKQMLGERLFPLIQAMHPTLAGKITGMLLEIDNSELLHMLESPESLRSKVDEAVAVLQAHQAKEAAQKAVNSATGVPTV
Rce1 inhib: yeast Rce1p protease inhibitors, primary screen, biochemical, fluorescence, cell-free homogeneous; CAAX prenyl protease 2 (Saccharomyces cerevisiae (strain ATCC 204508 / S288c)), Q03530; yeast membranes, quenched prenylated peptide cleavage fluorescence; calls only; 290,000 tested, 0.27% active;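 active = fall in fluorescence gain of 50% or more versus controls, with final raw signal at or below 3038400; inconclusive = same 50% fall but final raw signal above 3038400; inactive = fall in fluorescence gain under 50%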;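 note: plate controls were neutral control wells for no effect and wells lacking membranes for full effect; tested at 10 µM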
Target sequence (Q03530 whole entry, looked up): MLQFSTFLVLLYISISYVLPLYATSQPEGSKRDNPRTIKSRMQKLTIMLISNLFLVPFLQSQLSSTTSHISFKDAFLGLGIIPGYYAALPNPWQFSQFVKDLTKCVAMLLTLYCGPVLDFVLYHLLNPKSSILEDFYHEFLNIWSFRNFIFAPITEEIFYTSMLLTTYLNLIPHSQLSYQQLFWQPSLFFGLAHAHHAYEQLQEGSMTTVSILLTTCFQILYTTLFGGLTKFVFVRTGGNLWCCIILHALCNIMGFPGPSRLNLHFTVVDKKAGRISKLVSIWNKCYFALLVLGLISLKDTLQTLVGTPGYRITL
eIF4H FP inh: human eIF4H binding inhibitors, primary screen, translation initiation inhibitor project, biochemical, uHTS, fluorescence polarization | Eukaryotic translation initiation factor 4H (Homo sapiens), Q15056 | eIF4H fluorescence polarization binding assay | inhibition, % at 35 µM | 290,000 tested, 0.94% active | AID 2012, 2009;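 active = 50% or more with normal probe brightness, or confirmed in later tests; inconclusive = above 50% with abnormal brightness, or retests that disagree; inactive = below 50% or failed in later tests; about a fifth of its hits are not listed in these tables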;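 note: calls also rest on retests at 20 µM and on dose response follow-up; 0% = protein and probe with vehicle and 100% = probe without protein; strong numbers were not always called active; many hits fall short of the cut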
CSC inhib: cancer stem cell viability inhibitors, primary screen, luminescence; 300,000 tested, 1.1% active; cancer stem cell-like cells viability; inhibition, % at 7.5 µM; AID 2717, 2010;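 active = mean at 75% or more and at least half the replicates too; inconclusive = mean and replicates disagree; tested in HMLE shEcad cells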;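 note: 0% = median of negative and 100% = median of positive control wells; the first replicate is given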
MT1-MMP act inh: blockers of MT1-MMP proenzyme processing, primary screen, HT1080 RFP-PRO-GFP cells, GFP/RFP fluorescence. Matrix metalloproteinase-14 (Homo sapiens), P50281. GFP/RFP ratio fluorescence, overnight; percent of plate control window, DMSO zero. GFP/RFP ratio change, % at 20 µM. 360,000 tested, 0.061% active;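 active = GFP/RFP ratio change of at least 30% with cell ATP level not reduced by more than half and red fluorescence within 50% of control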; note: strong numbers were not always called active
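system = RFP-PRO-GFP reporter HT1080 cells | dosing = 20 µM single dose, 1% DMSO | timing = overnight cell settling, then overnight compound exposure, 37 °C, 5% CO2 | read-out basis = GFP/RFP fluorescence ratio | controls = DMSO and RFP-L50D-GFP cell wells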
Env fusion inh: inhibitors of HIV-1 Env-driven cell-cell fusion, primary screen, HeLa-JRFL effector, CEM21 target cells, luciferase; AID 651610, 2012; 360,000 tested, 1.1% active; inhibition, % at 12.3 µM;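 active = mean replicate inhibition score of at least 50 and every replicate individually at or above 50; inconclusive = only one of the two criteria met; inactive = mean below 50 and not all replicates reaching 50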;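 note: 0% = plate neutral controls and 100% = maraviroc near 300 nM; one replicate is shown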
UUG fidelity: modulators of yeast start codon fidelity, primary screen, whole organism, S. cerevisiae, single point, plate reader; S. cerevisiae UUG-firefly luciferase reporter, luminescence/redox ratio; 350,000 tested, 0.13% active; activity score, % at 18.7 µM; AID 602363, 2012;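 active = replicate mean at a twofold rise or more, about +100% in these data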;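 note: firefly luciferase made from a UUG start codon reports start codon fidelity; reporter light over untreated wells divided by growth signal over untreated wells; some hits fall short of that in this replicate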
MT1-MMP act inh RFP: also measured in MT1-MMP act inh; calls as there; RFP signal change, %; measured here: RFP expression control read;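 0 = vehicle wells; hits needed this value within 50% of zero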
An asterisk follows results filed as active; i = inactive; ? = inconclusive; nt = not tested or not shown. The order is random; any-hit rate near 3%.

SMILES | PABP FP inh | Rce1 inhib | eIF4H FP inh | CSC inhib | MT1-MMP act inh | MT1-MMP act inh RFP | Env fusion inh | UUG fidelity
FC(F)(F)c1cccc(NCc2n[nH]c(=S)n2C2CCCCC2)c1 | -12 | i | -2 | 6 | 3 | -2 | -25 | nt
O=C(NCc1cccc(C(F)(F)F)c1)c1ccc2nc([C@H]3C[C@H](O)[C@@H](CO)O3)[nH]c2c1 | nt | nt | nt | nt | -3 | 3 | 8 | -12
CCOC(=O)C1(CCc2ccccc2)CCN(C(=O)[C@@H]2C[C@@H](C)NC(=S)N2)CC1 | -1 | i | -5 | 7 | 1 | 1 | -28 | -38
O=C1CCC(=O)N1OCCOc1ccc2c(c1)CCC2 | -8 | i | -9 | -17 | -1 | 3 | nt | -18
O=C(O)CCC(=O)Nc1cccc(C(=O)Nc2ccc(Br)cc2)c1 | 5 | i | 2 | -8 | -1 | -2 | 3 | -7
CCC(=O)N1c2ccc(S(=O)(=O)N3CCCC3)cc2CC1C (stereo unspecified) | 4 | i | 0 | 1 | 5 | 1 | -10 | -2
CCC(C)N(C(=O)COc1ccc(Cl)c2cccnc12)C1CCS(=O)(=O)C1 (stereo unspecified) | nt | i | nt | 0 | -7 | -7 | nt | -2
Cc1nn(C)cc1C(C(=O)NC1CCCCC1)N(C(=O)Cc1cccs1)c1ccc(F)cc1 (stereo unspecified) | 9 | i | -3 | 12 | -2 | -1 | 36 | nt
Cc1ccc(C(=O)OC(C)C(=O)NC(C)CCc2ccccc2)o1 (stereo unspecified) | nt | nt | nt | -15 | -2 | 1 | 4 | -5
N=c1c(C(=O)NCCN2CCOCC2)cc2c(=O)n3ccccc3nc2n1CCc1ccccc1 | 6 | i | 1 | -1 | -3 | 1 | -26 | 2
O=C(Nc1ccc(Cl)cc1C(=O)NCCN1CCOCC1)c1ccc(Cl)cc1Cl | 8 | i | -1 | -4 | 5 | 7 | -421 | -8
CCOC(=O)CCc1c(C)c2c(C)nn(-c3ccccc3)c2[nH]c1=O | -6 | i | 2 | 2 | 2 | -5 | -4 | -29
CN(Cc1ccccc1)C(=O)c1c[nH]c2ccc(S(=O)(=O)N3CCOCC3)cc2c1=O | -2 | i | 2 | 9 | -2 | 6 | nt | nt
COCCNC(=O)COc1ccc(Br)cc1Cl | 2 | i | 6 | -16 | 2 | -3 | nt | 4
Cc1ccc(S(=O)(=O)N(c2nc(N(C)C)nc(N(C)C)n2)n2cnnc2)cc1 | 0 | i | -12 | nt | -2 | -1 | nt | 4
CCC(C)NC(=O)c1ccc2nc(-c3ccc(OC)c(OC)c3)c(-c3ccc(OC)c(OC)c3)nc2c1 (stereo unspecified) | 1 | i | 6 | -14 | 0 | -1 | 28 | -19
Cc1ccc(NC(=O)CSCC(=O)NCCc2ccccn2)c(C)c1 | -13 | i | 0 | -15 | 5 | 4 | 0 | nt
O=C(Nc1ccc(Oc2cccnc2)cc1)c1cccc([N+](=O)[O-])c1 | -9 | i | 2 | 12 | 6 | -3 | nt | nt
CCC(C)(C)NC(=O)C(c1ccc(OC)cc1)N(C(=O)CCC(=O)Nc1cc(C)on1)c1ccc2c(c1)OCO2 (stereo unspecified) | 4 | i | -9 | 1 | -2 | 2 | 10 | -10
C=CCN(C(=O)c1csnn1)C(C(=O)NC1CCCCC1)c1ccc(F)cc1 (stereo unspecified) | -1 | i | -9 | 6 | -4 | -3 | 24 | -13
CC(NC(=O)c1ccc(F)cc1)C1CC2CCC1C2 (stereo unspecified) | 8 | nt | 1 | -10 | 1 | 0 | -8 | -18
CCN(Cc1ccccc1)C(=O)c1cc(S(=O)(=O)N2CCOCC2)ccc1N1CCCC1 | nt | i | nt | -12 | -2 | -5 | -6 | 14
Cc1cccc(OCC(=O)Nc2ccc(N3CCN(C(=O)c4ccccc4)CC3)cc2)c1 | 25 | i | 4 | -6 | 1 | -9 | nt | nt
CCc1nc2c(c(=O)c3ccccc3n2C)c(=O)n1C1CCCCCC1 | -4 | i | 0 | 34 | -33 | -24 | nt | nt
CCCOc1ccc(C2C(C(=O)OC)=CN(CCOC)C=C2C(=O)OC)cc1 | 23 | i | 1 | 0 | 9 | 2 | nt | -7
Cn1c(=O)c2[nH]c(-c3ccccc3O)nc2n(C)c1=O | -7 | i | 17 | -1 | nt | nt | nt | nt
COc1cc(C)ccc1OCCOCCOc1c(C)cc(C)cc1Br | 10 | i | 6 | 7 | -1 | -1 | nt | 2
CN(C)Cc1cnc2ccc(Cl)cn12 | -12 | i | -15 | -10 | 1 | 5 | 13 | -21
CCCCOC(=O)c1ccc(N/C(=N\S(=O)(=O)c2ccccc2)c2ccccc2)cc1 | -6 | i | 3 | -15 | -8 | -12 | nt | nt
COc1ccc(C2=NS(=O)(=O)N(C)C(C(=O)NCc3ccc(F)cc3)=C2)cc1OC | -12 | i | 0 | -24 | -13 | -37 | -11 | -10
COc1cc(/C=C/C(=O)N[C@@H](Cc2c[nH]c3ccccc23)C(=O)O)ccc1O | 7 | i | -1 | -4 | 3 | 1 | -4 | nt
O=C(N/N=C/c1ccccc1C(=O)O)c1cc(-c2ccc3c4c(cccc24)CC3)n[nH]1 | ? | i | 18 | 5 | -5 | 3 | -22 | nt
COc1cc(OC)cc(-c2nc(-c3ccccc3)no2)c1 | -11 | i | -7 | -3 | -8 | -1 | -147 | -11
CNC(=O)C[C@H]1C(=O)N(c2ccc(Br)cc2)C[C@@H]1CSC | nt | nt | nt | nt | 0 | 6 | -40 | 2
O=c1[nH]c2ccc(NC(=S)NCCc3ccccc3)cc2[nH]1 | 12 | i | -8 | 11 | 0 | -5 | 7 | -9
Cc1ccc(-c2noc(CN(C)C(=O)c3ccc(Br)o3)n2)cc1 | nt | i | nt | -11 | 1 | 0 | -19 | -1
Cc1cc(C)c(S(=O)(=O)NC2CC(C)(C)NC(C)(C)C2)cc1C | -1 | nt | -13 | -6 | 1 | 1 | 2 | -31
CCc1cc2c(=O)c(-c3nc4ccccc4n3C)c(COCC(=O)O)oc2cc1O | 3 | nt | -2 | -17 | 6 | 9 | nt | -37
COc1ccc(-c2nc(CN3CCN(Cc4cccc(F)c4)CC3)c(C)o2)cc1 | -2 | i | -3 | -7 | -4 | -3 | 21 | -7
Cc1[nH]nc(-c2ccc(O)cc2O)c1-c1ccc(Cl)cc1 | -2 | i | -5 | 30 | 0 | -9 | 2 | -39
Cc1ccccc1OCCCN1CCOCC1 | 3 | i | -6 | -2 | 0 | 4 | -21 | -4
CSc1nnc2c3ccccc3n(Cc3ccccc3)c2n1 | 8 | i | 46 | -5 | -7 | -6 | nt | -12
CCCC(=O)Nc1ccc(Cl)c(NC(=O)c2cccnc2)c1 | -9 | i | -4 | -10 | -4 | -4 | 0 | -14
CCCC(=O)Nc1ccc(Cl)c(NC(=O)c2ccc([N+](=O)[O-])cc2Cl)c1 | -10 | i | -4 | -3 | 6 | -1 | 7 | nt
Cc1ccc(C)n1CCN1CCN(CC(=O)Nc2ccc(S(N)(=O)=O)cc2)CC1 | 4 | i | -5 | -13 | 0 | 3 | -22 | 3
O=C(CCN1C(=O)/C(=C\c2cccc(Br)c2)SC1=S)N1CCOCC1 | -4 | i | 0 | 18 | -1 | -5 | -9 | 3
Cc1cc2ccc(C)c(C)c2nc1SCC(=O)c1cccs1 | -8 | i | -10 | -10 | -16 | -8 | -31 | -19
CCOC(=O)c1cnc(SCC(=O)OCC(=O)NC2CCS(=O)(=O)C2)nc1N (stereo unspecified) | nt | i | nt | nt | 2 | 8 | 6 | nt
CCCNC(=O)c1cc(C2CCCN(C(=O)c3ccc4ccccc4c3)C2)on1 (stereo unspecified) | nt | nt | nt | nt | 2 | -4 | 2 | -4
CC(C)Oc1cc(F)ccc1-c1cc(C(=O)Nc2cccc(C(F)(F)F)c2)[nH]n1 | nt | nt | nt | nt | -3 | -14 | -37 | 5
O=[N+]([O-])c1cc([N+](=O)[O-])c2cc3ccccc3nc2c1 | 9 | i | 22 | 80* | -13 | -8 | -46 | -4
Cc1sc2nc(CN3CCN(c4ccc(O)cc4)CC3)[nH]c(=O)c2c1C | 6 | i | 5 | 23 | -6 | -10 | 4 | nt
Cn1c(N2CCN(c3ccccn3)CC2)nc2c1c(=O)n(Cc1ccccc1Cl)c(=O)n2C | nt | i | nt | -1 | 0 | -1 | nt | -11
Cc1ccc(/C=N/NC(=O)Cc2ccc(Cl)cc2)s1 | 7 | i | 13 | 26 | -10 | -1 | -18 | -10
CCn1cc(C2=NC(CCSC)CO2)c2ccccc21 (stereo unspecified) | 1 | i | 3 | -4 | 2 | 3 | 1 | nt
CCCn1c(N)c(N(CCOC)C(=O)CSc2c(Cl)cccc2Cl)c(=O)[nH]c1=O | nt | nt | nt | -9 | -1 | -1 | 4 | -6
O=C(Nc1ccc(C(F)(F)F)cc1)c1ccccc1 | nt | nt | nt | 7 | 6 | 3 | -102 | -13
Cc1ccc(CNC(=O)CSc2nnc3c(n2)[nH]c2ccccc23)cc1 | -15 | i | 2 | -9 | 1 | -1 | 5 | 0
O=S(=O)(NCC(c1ccco1)N1CCc2ccccc2C1)c1ccc(Br)cc1 (stereo unspecified) | nt | i | nt | 18 | -5 | -2 | 0 | 3
CC(C)NC(=O)c1cc2c(C(F)(F)F)nn(C)c2s1 | 2 | i | -5 | -4 | nt | nt | nt | -15

(listing goes on)
SMILES | PABP FP inh | Rce1 inhib | eIF4H FP inh | CSC inhib | MT1-MMP act inh | MT1-MMP act inh RFP | Env fusion inh | UUG fidelity
Cc1ccc(CNC(=O)CCn2cc(-c3ccc(F)cc3)nc2-c2ccncc2)cc1 | nt | nt | nt | -13 | 3 | -6 | -27 | -18
CN(C)CCCNCCCNC(=O)/C(=N\O)c1ccccn1 | -2 | i | 1 | -6 | -2 | 7 | -13 | -29
O=C(Nc1cccc([N+](=O)[O-])c1)Nc1cccs1 | -10 | i | 2 | -3 | 2 | 0 | 4 | nt
c1cc(-c2ccsc2)n2cnnc2c1 | nt | nt | nt | nt | -6 | 3 | 1 | -31
O=C(CSCc1ccccc1Cl)Nc1ccc(C(=O)O)cc1 | 8 | i | -4 | -17 | 3 | 6 | -67 | -11
O=C(OCC(=O)N1CCN(S(=O)(=O)c2ccccc2)CC1)c1ccc([N+](=O)[O-])o1 | 1 | i | -2 | -9 | -3 | -3 | 0 | -2
Cc1cc(C)c(-c2cc(NC(=O)CSc3nncn3C)n(-c3ccccc3)n2)cc1C | -4 | i | 4 | nt | 3 | 3 | nt | -1
COCCN1CC(=O)N2C(c3cccc(OC)c3)c3[nH]c4ccccc4c3C[C@H]2C1=O (stereo partly specified) | 2 | i | -11 | -14 | 1 | 2 | 32 | -9
Cc1onc(-c2c(Cl)cccc2Cl)c1C(=O)NC(C)(C)CO | 9 | i | 3 | nt | 3 | -1 | 2 | -17
